Bioassay records: PubChem BioAssay, Broad Institute
DUX4 txn inh = DUX4-mediated transcription inhibition; 293T-iDUX4 ZSCAN4-Gaussia luciferase reporter, 24 h; hits give low values; actives 0.8% (n = 37,000); activity change, negative = inhibition, % (test concentration not listed);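 active = -10% or lower and over 25 points stronger than a control reporter; inconclusive = -10% or lower with a smaller gap; inactive = above -10%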;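 note: 0% = median of neutral control wells and -100% = median of positive control wells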
DUX4 txn inh difference = further read-out of DUX4 txn inh, marked with its call; Gaussia minus Italica difference, %; measured here: selective DUX4 reporter inhibition;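 worked out from the two reporters; negative = selective loss of the DUX4 reporter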
DUX4 txn inh control = further read-out of DUX4 txn inh, marked with its call; activity change, negative = inhibition, %; measured here: Italica tet-on control reporter;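 0 = neutral control and -100 = positive control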
The depositor's hits bear a star; ? = inconclusive; / = not tested or not shown; & = joins results of further samples.

mol	DUX4 txn inh difference	DUX4 txn inh	DUX4 txn inh control
CO[C@@H]1CC[C@@H]2CCN(C)C(=O)[C@H](C)N(C)C(=O)c3cccc(C#N)c3OC[C@@H]1O2	-1	3	3.8
CC(C)NC(=O)N1CCCCN2[C@H](CO)[C@@H](c3ccc(Br)cc3)[C@H]2C1	7	7	0.2
O=C(C1CCOCC1)N1C[C@@H]2[C@H](c3ccccc31)[C@H](CO)N2Cc1ccccc1Cl	1	-5	-5.4
CC(C)NC(=O)N[C@@H]1C=C[C@@H](CC(=O)NCCCN(C)C)O[C@@H]1CO	-3	-3	-0.3
COC(=O)[C@@H]1[C@@H](CO)[C@@H]2Cn3c(ccc(-c4ccc(F)cc4)c3=O)[C@@H]2N1Cc1ccccn1	5	1	-3.4
CCCNC(=O)N1[C@@H]2Cn3c(ccc(-c4ccccc4OC)c3=O)[C@H]1[C@@H](C(=O)NCC)[C@@H]2CO	0	8	8.4
COc1ccc(CN(C)C[C@@H]2OCc3cn(nn3)CCCC(=O)N([C@H](C)CO)C[C@@H]2C)cc1	-6	-2	4.1
COc1ccc(S(=O)(=O)N2C[C@@H](O)COC[C@@H]3O[C@H](CC(=O)NCCN4CCCCC4)CC[C@H]32)cc1	5	1	-3.8
COc1ccccc1-c1cccc(-c2nc(C(=O)Nc3nccs3)cc3c2[C@@H](CCO)N(C(=O)CC2CC2)C3)c1	3	-3	-6.0
C/C=C/c1ccc([C@@H]2[C@H](CO)N3CCCCN(C(=O)Nc4ccc(F)cc4)C[C@@H]23)cc1	8	19	11
O=C(C1CCOCC1)N1C[C@@H]2[C@H](c3ccccc31)[C@@H](CO)N2Cc1ccccc1Cl	-6	-4	2.2
C[C@H](CO)N1C[C@H](C)[C@@H](CN(C)Cc2cncnc2)Oc2ncc(C#C[C@@H](C)O)cc2C1=O	4	6	2.1
CO[C@@H]1CN(C)C(=O)c2cc(NC(=O)C3CC3)ccc2OC[C@H](C)N(Cc2cc(F)ccc2F)C[C@H]1C	/	?	/
CN(C)CC(=O)N1[C@@H](CO)[C@@H](c2ccccc2)C12CN(C(=O)c1ccc(F)cc1)C2	-3	0	3.0
O=C(CC1CC1)N1[C@H](CO)[C@H]2c3ccccc3N(S(=O)(=O)c3ccc(F)cc3)C[C@H]21	0	-3	-3.1

By substructure: the compounds so far with sulfur (three)
mol	DUX4 txn inh difference	DUX4 txn inh	DUX4 txn inh control
COc1ccc(S(=O)(=O)N2C[C@@H](O)COC[C@@H]3O[C@H](CC(=O)NCCN4CCCCC4)CC[C@H]32)cc1	5	1	-3.8
COc1ccccc1-c1cccc(-c2nc(C(=O)Nc3nccs3)cc3c2[C@@H](CCO)N(C(=O)CC2CC2)C3)c1	3	-3	-6.0
O=C(CC1CC1)N1[C@H](CO)[C@H]2c3ccccc3N(S(=O)(=O)c3ccc(F)cc3)C[C@H]21	0	-3	-3.1

(more compounds)
mol	DUX4 txn inh difference	DUX4 txn inh	DUX4 txn inh control
COc1ccc2c3c(n(C)c2c1)[C@H](CO)N(C(=O)Nc1ccc(F)cc1)CC31CN(S(=O)(=O)c2cccs2)C1	7	3	-4.1
O=C(C[C@H]1CC[C@@H]2[C@H](COC[C@@H](O)CN2C(=O)Nc2cc(Cl)cc(Cl)c2)O1)NCC1CC1	2	0	-2.3
COCC(=O)N1CCCCN2[C@H](CO)[C@@H](c3ccc(-c4ccc(OC)cc4)cc3)[C@H]2C1	-17	-6	11
CN1CCCCN2[C@@H](CO)[C@H](c3ccc(Br)cc3)[C@@H]2C1	9	19	9.6
Cc1noc(C)c1NC(=O)Nc1cccc2c1O[C@@H](CN(C)Cc1ccc(C(=O)Nc3ccccc3N)cc1)[C@@H](C)CN([C@@H](C)CO)C2=O	-3	-2	1.4
O=C(C[C@@H]1C[C@@H]2c3cc(NS(=O)(=O)c4ccc(F)cc4)ccc3O[C@@H]2[C@@H](CO)O1)NCCc1ccccc1	/	?	/
COc1ccc2c3c([nH]c2c1)[C@H](CO)N(C(=O)c1cccnc1)CC31CCN(Cc2cccnc2)CC1	15	23	8.4
CCCNC(=O)N1[C@@H]2CNC[C@H]1C2c1ccc(-c2cccc(C#N)c2)cc1 (stereo not given in full)	-12&5	-2&10	9.5&5.2
CS(=O)(=O)N1[C@@H]2Cn3c(cccc3=O)[C@H]1[C@@H](C(=O)NCc1ccccc1)[C@@H]2CO	9	12	2.4
O=C(c1cccnc1)N1CC(=O)N2[C@H](CO)[C@@H](c3ccc(/C=C/c4ccccc4)cc3)[C@@H]2C1	/	?	/
CC(C)[C@@H](C)NC(=O)N(C)C[C@@H]1OCc2ccccc2-c2ccccc2C(=O)N([C@@H](C)CO)C[C@@H]1C	-5	-4	0.9
CN1C(=O)c2cc(NC(=O)c3ccc4c(c3)OCO4)ccc2OC[C@H]2O[C@@H](CC(=O)O)CC[C@H]21	-1	0	1.0
Cn1cnc(S(=O)(=O)N[C@@H]2CC[C@H](CC(=O)NCC3CCCCC3)O[C@H]2CO)c1	15	3	-11
COCC(=O)N[C@H]1C=C[C@H](CC(=O)N2CCCCC2)O[C@@H]1CO	-1	-5	-3.9
COc1ccc2c3c([nH]c2c1)[C@@H](CO)N(Cc1ccncc1)CC31CN(S(C)(=O)=O)C1	2	6	3.8
COc1ccc2c3c([nH]c2c1)[C@@H](CO)N(Cc1cccc(F)c1)CC31CCN(C(C)=O)CC1	3	-3	-5.8
CO[C@H]1CN(C)C(=O)c2cc(NC(=O)Nc3ccc(Cl)cc3)ccc2OC[C@H](C)N(C)C[C@@H]1C	/	?	/
COc1ccc(NC(=O)N2CCC3(CC2)CN(C(=O)CN2CCOCC2)[C@@H](CO)c2[nH]c4cc(OC)ccc4c23)cc1	4	10	5.5
CC=Cc1ccc2n(c1=O)C[C@H]1[C@H](CO)[C@@H](C(=O)NCc3ccc(F)cc3)[C@@H]2N1S(C)(=O)=O (mixture of isomers)	-17	-8	8.8
CO[C@H]1CN(C)C(=O)c2cc(NC(C)=O)ccc2OC[C@@H](C)N(C(=O)Cc2ccccn2)C[C@H]1C	1	4	3.3
C[C@H](CO)N1C[C@H](C)[C@H](CN(C)C(=O)Nc2ccccc2C(F)(F)F)OCc2cnnn2CCCC1=O	-11	0	11
CN(C)CCCNC(=O)[C@H]1[C@H](CO)[C@H]2Cn3c(ccc(-c4ccc(F)cc4)c3=O)[C@@H]1N2C	7	10	3.6
CO[C@H]1CN(C)C(=O)c2cc(NC(=O)NC(C)C)ccc2OC[C@@H](C)N(CCC(F)(F)F)C[C@H]1C	-1	-2	-1.2
CC(C)(C)[S@](=O)N1Cc2cc(C(=O)N[C@@H]3CCN(Cc4ccccc4)C3)nc(-c3cccc(-c4ccncc4)c3)c2[C@@H]1CCO	-3	-4	-0.9
COc1ccccc1NC(=O)N[C@H]1CC[C@H](CCNS(=O)(=O)c2ccc(Cl)cc2)O[C@@H]1CO	-1	-1	0.2
CC(C)NC(=O)N(C)C[C@@H]1Oc2ccc(NC(=O)Cc3ccccc3)cc2CC(=O)N([C@@H](C)CO)C[C@H]1C	0	4	4.1
C[C@@H]1CN([C@@H](C)CO)C(=O)CCCn2cc(nn2)CO[C@@H]1CN(C)S(=O)(=O)c1ccc2ccccc2c1	0	1	0.9
C[C@@H](NC(=O)C[C@H]1C[C@@H]2c3cc(NC(=O)c4ccc5c(c4)OCO5)ccc3O[C@@H]2[C@H](CO)O1)c1ccccc1	-11	-3	8.6
C[C@H](CO)N1C[C@H](C)[C@H](CN(C)CC2CCCCC2)OCc2cn(nn2)CCCC1=O	4	3	-0.9
CCC(=O)N1CC2(C1)[C@H](c1ccccc1)[C@@H](CO)N2CC1CCOCC1	-1	5	5.6

Some of these compounds in order of formula weight, ascending.
mol	DUX4 txn inh difference	DUX4 txn inh	DUX4 txn inh control
CN1CCCCN2[C@@H](CO)[C@H](c3ccc(Br)cc3)[C@@H]2C1	9	19	9.6
CCCNC(=O)N1[C@@H]2Cn3c(ccc(-c4ccccc4OC)c3=O)[C@H]1[C@@H](C(=O)NCC)[C@@H]2CO	0	8	8.4
CC(C)[C@@H](C)NC(=O)N(C)C[C@@H]1OCc2ccccc2-c2ccccc2C(=O)N([C@@H](C)CO)C[C@@H]1C	-5	-4	0.9
C[C@@H]1CN([C@@H](C)CO)C(=O)CCCn2cc(nn2)CO[C@@H]1CN(C)S(=O)(=O)c1ccc2ccccc2c1	0	1	0.9

Continued.
mol	DUX4 txn inh difference	DUX4 txn inh	DUX4 txn inh control
O=C(C[C@H]1C=C[C@@H](NC(=O)c2cnccn2)[C@@H](CO)O1)NCc1ccccc1F	-5	1	5.7
C/C=C/c1ccc2c(c1)O[C@H](CN(C)C(=O)c1cccc(F)c1)[C@@H](C)CN([C@@H](C)CO)S2(=O)=O	-1	-2	-1.5
COC(=O)C[C@@H]1CC[C@@H]2[C@H](COc3ccc(NC(=O)Nc4c(C)noc4C)cc3C(=O)N2C)O1	6	4	-1.5
CN1C(=O)c2cc(NS(=O)(=O)c3ccc(Cl)cc3)ccc2OC[C@@H]2O[C@@H](CC(=O)N3CCc4ccccc4C3)CC[C@H]21	-5	-2	3.0
O=C(NC1CCCCC1)N1CC(=O)N2[C@H](CO)[C@@H](c3ccc(-c4cccc(F)c4)cc3)[C@@H]2C1	/	?	/
C[C@@H](NC(=O)C[C@H]1C[C@@H]2c3cc(NC(=O)c4cccnc4)ccc3O[C@@H]2[C@H](CO)O1)c1ccccc1	1	5	4.2
C[C@H]1CN([C@@H](C)CO)C(=O)c2c(c3ccccc3n2C)-c2ccccc2CO[C@H]1CN(C)S(=O)(=O)c1ccc(Cl)cc1	/	?	/
c1ccc(-c2ccc([C@H]3[C@H]4CNC[C@@H]3N4Cc3cc(-c4ccccc4)on3)cc2)cc1	12	16	3.8
CCS(=O)(=O)Nc1ccc2c(c1)C(=O)N(C)[C@H]1CC[C@@H](CC(=O)NC)O[C@@H]1CO2	1	4	2.6
CN1C(=O)c2cc(NC(=O)Nc3ccccc3F)ccc2OC[C@@H]2O[C@@H](CC(=O)NCCc3ccncc3)CC[C@H]21	-1	2	3.4
Cc1ccc(S(=O)(=O)N2[C@@H]3CNC[C@H]2C3c2ccc(-c3ccc(C(=O)N(C)C)cc3)cc2)cc1 (stereo not given in full)	0	11	11
CC(=O)N1CC2(C1)[C@@H](c1ccccc1)[C@@H](CO)N2Cc1ccccc1F	-2	-4	-1.4
CO[C@H]1CN(C)C(=O)c2cc(NC(=O)Cc3ccccc3)ccc2OC[C@@H](C)N(C)C[C@H]1C	2	-2	-4.2
O=C1N[C@@H](c2ccccc2)COCc2cn(nn2)CC[C@H]1Cc1ccc(C(F)(F)F)cc1	-5	0	5.0
C[C@H](NC(=O)C[C@@H]1CC[C@H]2[C@@H](COc3ccc(NC(=O)C4CCOCC4)cc3C(=O)N2C)O1)c1ccccc1	5	7	1.8
CN(C)CC(=O)Nc1ccc2c(c1)[C@@H]1C[C@H](CC(=O)NC3CCCCC3)O[C@@H](CO)[C@@H]1O2	-2	-4	-2.8
COCC#Cc1ccc2c(c1)O[C@@H](CN(C)S(=O)(=O)c1ccc(OC)cc1)[C@@H](C)CN([C@H](C)CO)S2(=O)=O	-9	-1	7.7
COc1ccc(-c2ccc(C3[C@@H]4CN(S(=O)(=O)c5cccc(C)c5)C[C@H]3N4)cc2)cc1 (stereo not given in full)	/	?	/
C[C@@H]1CCCCO[C@@H](CN(C)Cc2ccccc2)[C@@H](C)CN([C@H](C)CO)C(=O)c2cc(NC(=O)Nc3ccc(F)cc3)ccc2O1	3	0	-3.6
COCCNC(=O)C[C@H]1CC[C@@H]2[C@H](COC[C@H](O)CN2Cc2ccc(Cl)c(Cl)c2)O1	1	-2	-3.3
COc1ccc2c3c([nH]c2c1)[C@H](CO)N(C(=O)c1ccc(F)cc1)CC31CN(C(=O)Nc2ccc(F)cc2)C1	-12	-9	3.3
CC=Cc1ccc2n(c1=O)C[C@H]1[C@H](CO)[C@@H](C(=O)NCc3ccncc3)N(Cc3ccncc3)[C@@H]21 (mixture of isomers)	4	-2	-5.9
CC(=O)N1CC[C@@H]2[C@H]1c1cc(-c3ccc(C#N)cc3)ccc1N(C)[C@H]2CO	3	-4	-7.2
CC(C)(C)[S@](=O)N1Cc2cc(C(=O)N3CCCCC3)nc(-c3cccc(-c4ccc(F)cc4)c3)c2[C@@H]1CCO	5	2	-3.2
COc1ccc(NC(=O)N(C)C[C@H]2Oc3ccc(NS(=O)(=O)c4cccs4)cc3CC(=O)N([C@@H](C)CO)C[C@@H]2C)cc1	2	-1	-3.1
O=C(C[C@@H]1CC[C@@H]2[C@H](COC[C@H](O)CN2C(=O)Nc2ccc(Cl)cc2)O1)NCCc1ccncc1	-7	3	11
O=C(Nc1ccccc1)N1CCCCN2[C@H](CO)[C@H](c3ccc(-c4ccncc4)cc3)[C@H]2C1	-16	-3	12
O=C(C1CC1)N1CC2(C1)[C@@H](c1ccccc1)[C@@H](CO)N2C(=O)c1cccnc1	8	10	2.5
C[C@@H]1CN([C@@H](C)CO)C(=O)c2cc(NC(=O)C3CCCCC3)ccc2O[C@H]1CN(C)Cc1ccc2c(c1)OCO2	-2	4	5.3
O=C(C[C@@H]1CC[C@@H]2[C@H](COC[C@@H](O)CN2C(=O)Nc2ccc(C(F)(F)F)cc2)O1)NCC1CCCCC1	0	-7	-7.1
COc1ccc2c3c(n(C)c2c1)[C@H](CO)NCC31CCN(C(=O)CC2CC2)CC1	4	1	-3.2
C[C@H]1CN([C@@H](C)CO)C(=O)c2cc(C#Cc3ccc(F)cc3)cnc2O[C@H]1CN(C)C	0	1	0.9
C[C@@H]1CCCCO[C@@H](CN(C)CC2CCCCC2)[C@H](C)CN([C@H](C)CO)C(=O)c2cc(NS(C)(=O)=O)ccc2O1	3	0	-2.2

Not all compounds are listed; count on the stated rates, not on these rows.
